High-throughput results as filed in PubChem BioAssay.
E coli growth: E. coli growth inhibition; Escherichia coli growth, OD600, 23 h; active compounds read low; OD600 absorbance (test concentration not listed); 330,000 compounds, 0.21% hits;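 active means OD600 absorbance below the run mean of sample wells minus 3.6 SD, in any replicate, cut at about 0.56 in these data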;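 further: stock transfer was 300 nL into about 60 µL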
Beta2AR agonist: agonists of human beta-2 adrenergic receptor inducing internalization | AID 504454 | Am2.2-beta2AR cells, FAP receptor internalization, flow cytometry; reference of the scale not given here | P07550 | 340,000 compounds, 0.43% hits | response, % (concentration not given with the values);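 active means response above a set limit, near 3 SD of response in nonfluorescent compounds, cut at about 42% in these data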;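 further: stock transfer was 100 nL into about 11 µL; a reference agonist was the positive control; negative values mostly stem from fluorescent compounds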
Target sequence (P07550 whole entry, looked up): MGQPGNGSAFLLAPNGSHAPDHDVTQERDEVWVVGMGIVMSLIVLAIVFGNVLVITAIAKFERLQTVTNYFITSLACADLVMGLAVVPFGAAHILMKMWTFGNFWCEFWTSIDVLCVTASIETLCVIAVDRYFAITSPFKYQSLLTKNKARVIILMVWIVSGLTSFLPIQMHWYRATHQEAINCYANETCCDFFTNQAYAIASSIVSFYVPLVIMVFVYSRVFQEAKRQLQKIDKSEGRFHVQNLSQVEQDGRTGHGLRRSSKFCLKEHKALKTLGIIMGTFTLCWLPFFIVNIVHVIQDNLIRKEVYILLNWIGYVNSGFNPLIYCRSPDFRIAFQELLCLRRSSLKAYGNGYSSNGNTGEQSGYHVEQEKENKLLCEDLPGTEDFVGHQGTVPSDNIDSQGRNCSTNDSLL
UCH37 inh: blocks the human deubiquitinase UCH37 | Q9Y5K5 | 330,000 compounds, 0.33% hits | inhibition, % (no concentration beside the values) | purified proteasome/UCH37, Ub-AMC cleavage fluorescence | AID 588478;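 active means mean of two replicates above 20%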;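 further: 0% = compound-free wells with enzyme and 100% = wells lacking proteasome; stock transfer was 100 nL into about 20 µL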
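Material: Human UCH37 enzyme supplied as purified proteasome complex | Schedule: 30 min compound-proteasome preincubation then 25 min substrate reaction, room temperature | Detection: AMC fluorescence from Ub-AMC cleavage, excitation 355 nm, emission 460 nm | Benchmarks: Wells without proteasome as full block, compound-free enzyme plus substrate as uninhibited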
ALR H2O2 inh: inhibitors of human sulfhydryl oxidase ALR; purified ALR, DTT oxidation, H2O2 HRP-luminol luminescence; AID 485317; inhibition, % (test concentration not listed); P55789; 290,000 compounds, 3.8% hits;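 active means mean and each replicate at 75% or more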;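 further: stock transfer was 7.5 nL into about 7.5 µL; 0% = neutral wells and 100% = wells with inactivated enzyme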
HNF4A DNA FP: change in binding of human HNF4 alpha to DNA; 360,000 compounds, 0.3% hits; P41235; activity change, % at 10 µM; HNF4a-FITC DNA binding, fluorescence polarization, 1 h; AID 1224865; in the data active means activity change above about 30%, passing the limit was not always enough;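 further: controls were the assay level and a saturating level of protein; the project sought stronger binding though the title names inhibitors; some compounds called inactive have numbers as strong as hits; positive values seem to mean higher polarization but the record does not say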
Target sequence (P41235 whole entry, looked up): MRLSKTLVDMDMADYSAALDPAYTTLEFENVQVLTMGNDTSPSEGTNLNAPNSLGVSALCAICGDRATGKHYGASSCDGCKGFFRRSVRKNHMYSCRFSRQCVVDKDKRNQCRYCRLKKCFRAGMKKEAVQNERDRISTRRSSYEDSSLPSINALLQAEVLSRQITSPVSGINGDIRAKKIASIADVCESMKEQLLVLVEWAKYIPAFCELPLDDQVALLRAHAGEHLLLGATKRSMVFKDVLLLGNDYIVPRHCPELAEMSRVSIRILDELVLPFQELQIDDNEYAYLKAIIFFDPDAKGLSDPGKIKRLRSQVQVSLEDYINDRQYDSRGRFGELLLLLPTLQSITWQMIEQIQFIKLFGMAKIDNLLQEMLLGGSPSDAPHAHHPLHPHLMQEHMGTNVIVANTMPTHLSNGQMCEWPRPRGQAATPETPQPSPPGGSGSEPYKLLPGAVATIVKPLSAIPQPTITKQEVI
FGF22 binding: binders of recombinant human FGF22 by thermal shift; 340,000 compounds, 1.5% hits; calls only at 9.99 µM; SYPRO orange fluorescence; percent of sucrose octasulfate shift, DMSO zero; AID 651658; Q9HCT0;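 active means melting point raised past a set limit in the mean and every replicate; three in four hits are not shown here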
Target sequence (Q9HCT0 whole entry, looked up): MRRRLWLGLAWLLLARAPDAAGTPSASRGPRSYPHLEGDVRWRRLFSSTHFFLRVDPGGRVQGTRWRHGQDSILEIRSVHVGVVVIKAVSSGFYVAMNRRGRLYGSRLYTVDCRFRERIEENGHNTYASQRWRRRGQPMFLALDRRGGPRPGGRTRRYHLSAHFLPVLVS
rRNA inh HTS: selective bacterial rRNA inhibition in E. coli; GFP signal change (wild-type ribosome), % (no concentration beside the values); AID 720706; 350,000 compounds, 1.6% hits; E. coli WT GFP vs humanized-ribosome RFP mutants, fluorescence, 24 h; active compounds read low; DMSO median 0, no signal -100;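 active means significant combined selectivity score with lowered wild-type GFP, culture density cut under 30%, mutant RFP and density less affected; inactive means any of these conditions unmet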; further: one replicate is shown; some compounds called inactive have numbers as strong as hits
rRNA inh HTS OD600: recorded beside rRNA inh HTS, whose call it bears; OD600 change, %; measured here: OD600 growth;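 optical density of the mix in the first replicate; 0 = DMSO median and -100 = no signal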
rRNA inh HTS RFP: recorded beside rRNA inh HTS, whose call it bears; RFP signal change, %; measured here: RFP humanized mutant strains;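 first replicate; 0 = DMSO median and -100 = no signal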
Active calls of the source: *; i = inactive; x = not tested or not shown. A portion of the library. The share of hits here may be higher or lower than overall.

SMILES | E coli growth | Beta2AR agonist | UCH37 inh | ALR H2O2 inh | HNF4A DNA FP | FGF22 binding | rRNA inh HTS | rRNA inh HTS OD600 | rRNA inh HTS RFP
NC(=O)CSc1nnc(-c2ccncc2)n1CCc1ccccc1 | 0.68 | 6 | 3.1 | -9 | -2.4 | x | x | x | x
COCC(=O)N=Nc1c(O)[nH]c2ccccc12 | 0.72 | -2 | 9.9 | -3 | 2.8 | i | 19 | 17 | 3.5
CC(NC(=O)c1ccc(Br)cc1)c1ccccc1 (configuration not stated) | 0.72 | 0 | 3.2 | -7 | 3.0 | x | x | x | x
Cc1cccc(NC(=O)c2ncn3c2C(=O)NC[C@@H]3C)c1 | x | x | x | x | -6.3 | i | -4 | -2 | -4.4
O=C(Nc1ccccc1Cl)C1CCCN(S(=O)(=O)c2ccc(-n3cnnn3)cc2)C1 (configuration not stated) | 0.66 | -11 | 1.0 | -2 | -4.3 | i | 0 | 9 | -3.3
COCC(C)N1CCC(Oc2cccc(C(=O)NCCc3ccccc3)c2)CC1 (configuration not stated) | 0.67 | -1 | -0.4 | 1 | -2.8 | i | 5 | 9 | 0.9
O=C1NC(NS(=O)(=O)c2ccccc2)(C(F)(F)F)C(=O)N1c1cccc(Cl)c1 (configuration not stated) | 0.63 | 12 | 3.8 | 3 | -2.0 | i | -6 | 9 | 0.7
CN(NC(=O)C1CC(=O)N(c2ccccc2)C1)C1=NS(=O)(=O)c2ccccc21 (configuration not stated) | 0.69 | -13 | 1.3 | x | 5.3 | i | 7 | 10 | 1.6
CCCOc1ccc(-c2nn(-c3ccccc3)cc2/C=C2\SC(N)=NC2=O)cc1C | 0.67 | 4 | -64 | 2 | 0.2 | i | 7 | 9 | 4.4
O=S(=O)(NCCSc1ccccc1)c1ccc(F)cc1 | 0.69 | -1 | 4.4 | -3 | 3.0 | x | x | x | x
COc1cc(C(=S)N2CCN(c3cccc(Cl)c3)CC2)ccc1O | 0.67 | 6 | 4.5 | 30 | -2.9 | i | -5 | 2 | 2.1
CC[C@]12c3[nH]c4ccc(OC)cc4c3CCN1C(=O)C(CC(=O)NC/C=C(\C)CCC=C(C)C)C[C@@H]2C(=O)N1CCN(C(=O)c2ccco2)CC1 (some centres not stated) | 0.66 | -3 | 0.8 | x | 5.6 | i | 2 | 13 | 1.1
Cc1ccc(S(=O)(=O)Cn2nnnc2CN(Cc2ccco2)Cc2cccs2)cc1 | 0.72 | -5 | 2.6 | 4 | 4.3 | x | x | x | x
COc1ccc(-n2nnnc2SCC(=O)c2ccc3c(c2)OCCO3)cc1 | 0.76 | 27 | 2.6 | -1 | -3.5 | x | x | x | x
O=S(=O)(c1ccc2c(c1)OCCO2)N1CCC(n2cnc3cc(F)ccc32)CC1 | 0.7 | 7 | 1.9 | 0 | 2.7 | x | x | x | x
Cc1ccc(C(C[N+](=O)[O-])c2c(N)n(C)c(=O)n(C)c2=O)cc1 (configuration not stated) | x | 10 | x | 17 | 2.9 | i | -24* | 6.3* | 3.3*
CCCc1cc(=O)oc2cc(OCC(=O)Nc3ccc(S(N)(=O)=O)cc3)ccc12 | 0.74 | 6 | -4.9 | -1 | -34 | i | 2 | 11 | -4.7
COc1ccccc1NC(=O)c1sc2ncn(Cc3cccc4ccccc34)c(=O)c2c1C | 0.67 | 11 | -40 | -2 | 29 | x | x | x | x
CC(NC(=O)COC(=O)c1ccc(CO)cc1)C1CC2CCC1C2 (configuration not stated) | 0.65 | -1 | 5.4 | -21 | 0.0 | i | -2 | 3 | 5.7
O=C(O)c1cc(NS(=O)(=O)c2cccs2)cc(NS(=O)(=O)c2cccs2)c1 | 0.71 | 12 | 5.6 | -8 | 0.3 | i | 15 | 22 | 3.0
O=c1[nH]c2cc3c(cc2cc1CN(CCN1CCOCC1)C(=S)NCC1CCCO1)OCO3 (configuration not stated) | 0.71 | -7 | -172 | -3 | 4.3 | i | 6 | 1 | 1.6
Cc1ccc(OC(=O)c2cc3ccccc3o2)cc1 | 0.74 | -6 | 1.6 | 14 | 0.2 | x | x | x | x
N#CCCN(C(=S)Nc1ccc(S(=O)(=O)N2CCOCC2)cc1)c1ccccc1F | 0.68 | 5 | 0.9 | x | 2.4 | i | -2 | 9 | -7.2
CN1CCc2c(sc(/N=C/c3c[nH]c4ccccc34)c2C#N)C1 | x | -19 | x | -40 | 77 | i | 18 | 11 | 5.5
COc1ccc(C)cc1Nc1ccc(C(=O)O)cc1[N+](=O)[O-] | 0.7 | 9 | 5.6 | 45 | 3.7 | i | 20 | 15 | 4.0

Next section (four carried over from the part before).
SMILES | E coli growth | Beta2AR agonist | UCH37 inh | ALR H2O2 inh | HNF4A DNA FP | FGF22 binding | rRNA inh HTS | rRNA inh HTS OD600 | rRNA inh HTS RFP
Cc1ccc(OC(=O)c2cc3ccccc3o2)cc1 | 0.74 | -6 | 1.6 | 14 | 0.2 | x | x | x | x
N#CCCN(C(=S)Nc1ccc(S(=O)(=O)N2CCOCC2)cc1)c1ccccc1F | 0.68 | 5 | 0.9 | x | 2.4 | i | -2 | 9 | -7.2
CN1CCc2c(sc(/N=C/c3c[nH]c4ccccc34)c2C#N)C1 | x | -19 | x | -40 | 77 | i | 18 | 11 | 5.5
COc1ccc(C)cc1Nc1ccc(C(=O)O)cc1[N+](=O)[O-] | 0.7 | 9 | 5.6 | 45 | 3.7 | i | 20 | 15 | 4.0
C=CCN(CC=C)C(=O)c1ccc2nc(Cc3ccc(OC)c(OC)c3)oc2c1 | 0.69 | 1 | 11 | -6 | -1.1 | i | -33* | 11* | -7.9*
Cc1cc(Cl)ccc1NC(=O)NC1CCN(S(=O)(=O)c2ccc(F)cc2)CC1 | 0.7 | 5 | 4.5 | -2 | -0.9 | x | x | x | x
Cc1nc2ccccc2c(=O)n1N(c1ccccc1)c1ccccc1 | 0.67 | -3 | 2.8 | -10 | 2.7 | i | -35 | -42 | -0.1
CCOC(=O)c1nc(C)n(-c2ccc(Cl)cc2)n1 | 0.68 | 2 | 0.4 | -1 | 1.4 | x | x | x | x
CCN(CC)S(=O)(=O)c1cccc(-c2nnc(SCC(=O)NC3CCCC3)n2N)c1 | 0.73 | -3 | 0.0 | 0 | 4.0 | x | x | x | x
COc1ccc(S(=O)(=O)N2CCCC(C(=O)NC3CCCC3)C2)cc1OC (configuration not stated) | 0.66 | 0 | 1.1 | 1 | -1.7 | i | 7 | 8 | 0.6
O=C(Nc1ccccc1C(=O)N/N=C/c1ccco1)c1ccccc1Cl | x | 0 | x | 4 | 3.9 | x | x | x | x
CCOc1cccc2sc(N(CCN(CC)CC)C(=O)c3cccc(N4C(=O)CCC4=O)c3)nc12 | 0.69 | 1 | 1.5 | -6 | 0.9 | i | -2 | 1 | -2.0
CC1CN(C(=O)c2ccc(-c3cccc(C(F)(F)F)c3)o2)CC(C)O1 (configuration not stated) | 0.65 | -4 | 2.3 | 3 | 2.4 | x | -10 | -16 | 0.4
O=C(Nc1cccnc1)c1c(F)cccc1F | 0.71 | 0 | 2.7 | 0 | -2.6 | i | 27 | 19 | -2.5
Cc1ccc2cc(CCNS(=O)(=O)c3ccc(Br)cc3)c(=O)[nH]c2c1C | 0.62 | 55* | -2.7 | x | -1.5 | i | -3 | -10 | 2.7
CC(=O)Nc1cccc(NC(=O)Nc2ccc(F)cc2F)c1 | 0.67 | -2 | 1.2 | -4 | 3.2 | i | 9 | 7 | -1.0
COC(=O)c1ccc2cc(OC)c(OC)cc2c1 | x | x | x | x | -2.9 | i | -19 | -25 | -0.4
O=C(CSc1ncnc2c1nnn2Cc1ccccc1F)N1CCN(c2ccccc2)CC1 | 0.75 | -1 | 3.5 | x | 1.0 | x | x | x | x
CN(Cc1cccc2cnccc12)C(=O)CCc1nnc(CCc2ccccc2)o1 | 0.73 | -1 | 1.8 | -3 | -4.3 | i | -4 | -8 | 0.8
O=c1[nH][nH]c(-c2ccccc2O)c1C(C[N+](=O)[O-])c1ccccc1 (configuration not stated) | x | 0 | x | 54 | -1.8 | x | x | x | x
Cc1ccc(-n2ncc3c2CCCC3NC(=O)c2ocnc2C)cc1C (configuration not stated) | 0.72 | 4 | 1.5 | -9 | 2.4 | i | 0 | 0 | -2.6
O=C(COC(=O)c1cc(S(=O)(=O)N2CCCCC2)ccc1N1CCOCC1)NC1CCS(=O)(=O)C1 (configuration not stated) | 0.65 | 2 | 2.7 | 28 | 2.2 | x | 5 | 11 | -2.1
CC1(C)CC(=O)C/C(=N\NC(=O)CCc2ccc(S(=O)(=O)N3CCOCC3)cc2)C1 | x | 4 | x | 26 | 1.0 | i | 16 | 7 | 2.7
c1ccc(-c2nc(NCc3cccnc3)c3oc4ccccc4c3n2)cc1 | 0.7 | -10 | 2.5 | x | 1.0 | x | x | x | x
CCOC(=O)C(C)Oc1cccc2c(=O)n(CC(=O)NCCc3ccc(OC)c(OC)c3)ccc12 (configuration not stated) | 0.69 | 20 | -0.3 | -4 | -1.3 | i | 2 | 1 | -0.5
O=C(NC1CCCC1)C(c1ccncc1)N(C(=O)c1ccco1)c1ccccc1 (configuration not stated) | 0.65 | 3 | 1.1 | x | -4.0 | i | -3 | -1 | -2.7
COc1ccc(CNC(=O)C2CCN(C(=O)[C@@H]3Cc4ccccc4CN3)CC2)cc1 | 0.62 | 1 | 2.5 | -2 | 0.4 | i | 9 | 9 | 1.4
COc1ccc(NC(=O)c2ccccc2NS(=O)(=O)c2ccc(CNC(C)=O)cc2)c(OC)c1 | 0.66 | 1 | 3.2 | x | -0.2 | i | 0 | -7 | -1.4
O=C(Nc1cccc(O)c1)c1cccc(S(=O)(=O)Nc2cccc(O)c2)c1 | 0.73 | -4 | 4.4 | 50 | 1.1 | i | -16* | -6.8* | 6.2*
SMILES | E coli growth | Beta2AR agonist | UCH37 inh | ALR H2O2 inh | HNF4A DNA FP | FGF22 binding | rRNA inh HTS | rRNA inh HTS OD600 | rRNA inh HTS RFP
O=Cc1c(Cl)[nH]c(=O)n1-c1ccccc1 | 0.67 | 4 | 5.0 | x | -6.1 | i | 4 | -5 | 1.0
Cc1cc(C)cc(NC(=O)C2CCN(C(=O)[C@@H]3Cc4ccccc4CN3)CC2)c1 | 0.65 | 5 | 0.9 | 6 | -1.0 | i | 5 | -1 | 2.4
Cc1ccc(C(NC(=O)C2CCN(Cc3ccc(Oc4ccccc4)cc3)CC2)c2ccccn2)cc1 (configuration not stated) | x | x | x | x | -0.3 | i | -58 | -73 | -20
CCOc1ccc(Nc2nc(N)nc(CSC(=S)N3CCN(c4ccccc4)CC3)n2)cc1 | 0.72 | -2 | 5.8 | -4 | -4.8 | i | 3 | 0 | 4.5
COC(=O)c1ccccc1N1C(=O)[C@@H]2C(c3ccc(F)cc3)=NO[C@@H]2C1=O | 0.71 | 1 | 0.6 | -3 | 1.6 | x | x | x | x
CCN1C(=O)[C@H]2[C@@H](c3ccc(-c4ccccc4)c(OC)c3)N[C@@](Cc3ccccc3)(C(=O)OC)[C@H]2C1=O | x | 5 | 4.9 | 6 | -2.1 | i | 5 | 5 | 3.9
CCN1CCN(S(=O)(=O)c2ccc(Cl)c(C(=O)N(C)CCOc3ccc(Cl)cc3)c2)CC1 | 0.69 | 7 | 3.0 | -8 | 1.7 | i | -13 | -17 | 1.2
COc1ccc(-c2cn3cccnc3n2)cc1NC(=O)c1cc(OC)c(OC)c(OC)c1 | 0.7 | -4 | -169 | -9 | 4.8 | i | -3 | -1 | 2.7
CSC1=NSC2=NC(=O)/C(=C/c3coc4ccc(O)cc4c3=O)C(=N)N12 | x | -399 | -13 | 22 | 103 | x | 6 | 2 | 7.7
